Sa growth inh: inhibitors of Staphylococcus aureus growth at 42 °C; AID 720641; S. aureus RN4220 growth, OD600, 20 h; stronger effect = lower value; hit rate 0.53% among 170,000; relative growth, % (test concentration not listed);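 active = growth at 42 °C up to 50% and 20 or more points under that at 30 °C, or under 10% at both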;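 also: 300 nL library stock went into each well; scaled to the means of positive and negative controls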
GIV-Gai inh: blocks GIV peptide binding to rat Galpha-i3; Galpha-i3/FITC-GIV peptide fluorescence polarization, 90 min; stronger effect = lower value; scaled: aluminum fluoride 0%, vehicle 100%; P08753; hit rate 0.42% among 210,000; AID 1224905; percent of control (FP), % (test concentration not listed);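 active = replicate mean at 85% of control or lower, very high polarization wells dropped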;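 also: wells of about 15 µL received 100 nL stock; the first replicate is given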
Target sequence (P08753 whole entry, looked up): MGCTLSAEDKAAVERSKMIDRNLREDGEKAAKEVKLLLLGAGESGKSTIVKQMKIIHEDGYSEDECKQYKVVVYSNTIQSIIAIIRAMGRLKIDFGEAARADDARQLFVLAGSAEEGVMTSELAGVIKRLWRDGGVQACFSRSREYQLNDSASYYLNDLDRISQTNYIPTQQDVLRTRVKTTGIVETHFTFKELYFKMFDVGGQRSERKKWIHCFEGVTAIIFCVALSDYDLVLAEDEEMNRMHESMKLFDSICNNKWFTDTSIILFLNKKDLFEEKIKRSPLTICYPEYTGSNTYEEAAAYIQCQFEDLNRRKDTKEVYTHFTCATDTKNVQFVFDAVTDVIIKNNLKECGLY
HCMV NEC inh: disrupts HCMV UL50-UL53 complex binding; inhibition, % (test concentration not listed); HTRF UL50-UL53 interaction, normalized percent inhibition; hit rate 0.15% among 190,000;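 active = both replicates at 50% or more, plus weaker picks with an unusually low signal ratio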;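 also: stock transfer was 100 nL into about 20 µL; 0% = negative control wells and 100% = wells with untagged competitor protein; inactives centre near -12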
Sa growth inh second temp: further read-out of Sa growth inh, marked with its call; relative growth, %; measured here: growth at 30 °C;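 optical density after 20 h as mean of two plates; 100% = untreated growth and lower means inhibition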
Active calls of the source: *; . = not tested or not shown; & = joins results of further samples. Rows are unselected. Share with any hit: about 0.82%.

SMILES | Sa growth inh | Sa growth inh second temp | GIV-Gai inh | HCMV NEC inh
CCc1ccc(NS(=O)(=O)c2ccc3c(c2)NC(=O)CS3)cc1 | . | . | 103 | -15
CN(CCNC(=O)CC1CCN(S(=O)(=O)c2ccc(Cl)cc2)CC1)C1CCCCC1 | . | . | 99 | -37
O=C(c1ccc(-c2ccccc2)cc1)N1CCCC1 | 92 | 101 | 106 | -6
Cc1ccc(COc2coc(CN3CCN(Cc4ccccc4)CC3)cc2=O)cc1 | 93 | 81 | 99 | -14
CC1CCN(S(=O)(=O)c2ccc(-c3nc(C#N)c(NC4CCCCC4)o3)cc2)CC1 | . | . | 103 | -20
Cc1c(C(=O)N2CCCCCC2)c(S(=O)(=O)N(Cc2ccccc2)C(C)(C)C)c(C)n1C | 93 | 80 | 101 | .
COCCN1C(=O)/C(=C/c2cc(C)n(-c3ccncc3)c2C)C(=O)N(c2ccccc2)C1=O | 84 | 88 | 111 | .
Cc1c(NC(=O)Nc2ccccc2C(F)(F)F)sc2nc3n(c(=O)c12)CCC(C)CC3 (configuration not stated) | 117 | 86 | 99 | -31
O=C(CSc1nnc(NC(=O)C2CC(=O)N(c3ccc(F)cc3)C2)s1)NCC1CCCO1 (configuration not stated) | 99 | 83 | 106 | -27
Cc1ccccc1N1C(=O)C(Oc2ccc(Cl)cc2)C1CNC(C)(C)C (configuration not stated) | 125 | 91 | 102&108 | -1
NS(=O)(=O)c1ccc(CCN(Cc2nc3ccsc3c(=O)[nH]2)Cc2nc3ccsc3c(=O)[nH]2)cc1 | 95 | 90 | . | -18
NCc1ccncc1 | 102 | 90 | . | -9
CCc1ccccc1N(CC)C(=O)c1cc2c(s1)-c1ccccc1OC2 | 88 | 78 | 102 | -23
O=C1CCCCC1Sc1nc2ccccc2[nH]1 (configuration not stated) | 107 | 88 | . | -34
COc1cc(Br)cc(/C=N/O)c1O | . | . | 100 | -23
O=C(CSc1n[nH]c(=O)n1Cc1ccco1)Nc1ccccc1 | 87 | 76 | 99 | -34
O=C(NC1C2CC3CC(C2)CC1C3)c1cc(F)c(F)cc1Cl (configuration not stated) | 81 | 87 | . | -12
CCCn1c(-c2ccc(OC)c(OC)c2)nc2ccccc21 | 88 | 73 | . | -6
N#CC1=C(N)N(c2cccc(C(F)(F)F)c2)C(=O)C1 | 102 | 83 | 99 | .
CCOC(=O)N1CCN(C(=O)C(CC(C)C)NS(=O)(=O)c2ccc3c(c2)oc(=O)n3C)CC1 (configuration not stated) | 91 | 100 | 102 | .
O=C1C2C3C=CC(O3)C2C(=O)N1OCc1ccc(OC(F)(F)F)cc1 (configuration not stated) | 110 | 93 | 104 | 2
CCOC(=O)c1ccc(NC(=O)c2nn(-c3ccccc3)c(=O)cc2OC)cc1 | . | . | 103 | -16
COc1ccc(NC(=O)CSc2n[nH]c(-c3ccccc3)n2)cc1Cl | 78 | 34 | 103 | .
CCCN(CCC)c1cc(Cl)nc(SC)n1 | . | . | 101 | -17
CCNC(=O)C1CC(=O)OC12CCCCC2 (configuration not stated) | 93 | 92 | . | -8
CCC(CC)NC(=O)c1ccc2c(c1)OCCO2 | 94 | 88 | . | -16
O=C1CC2CCCC(CN1)N2CC(=O)N1CCCCCC1 (configuration not stated) | 102 | 89 | 104 | -7
O=C(Nc1ccc(Br)cc1F)c1ccc2c(c1)N(Cc1ccccc1)C(=O)CS2=O (configuration not stated) | 94 | 93 | 107 | -4
COc1ccc(-c2cc(C(=O)NCCCn3ccnc3)c3ccccc3n2)cc1 | 101 | 94 | . | -52
COc1ccccc1N1CCN(C(C)C(=O)N(C)Cc2ccccc2)CC1 (configuration not stated) | 123 | 97 | . | -1
COc1ccc2occ(C(=O)c3coc4ccc(O)c(CN(C)C)c34)c2c1 | 66 | 82 | 98 | -22
C=CCN1C(=O)C2(c3ccccc31)c1c(oc3ccccc3c1=O)C(=O)N2CCCO (configuration not stated) | 103 | 80 | 110 | .
C=CCN(Cc1nc(-c2ccc(C)cc2)no1)C(=O)Nc1ccccc1OC | . | . | 103 | -8
COc1ccc(NC=O)c(CS(=O)(=O)c2ccc(C)cc2)n1 | 83 | 85 | . | -7
COc1ccc(-c2nc(Cn3c(SCc4ccccc4F)nc4ccncc43)c(C)o2)cc1OC | 106 | 81 | 99 | -20
O=C1CCc2cc(S(=O)(=O)N3CCCC3C(=O)NC3CCCCC3)ccc2N1 (configuration not stated) | 108 | 88 | 107 | .
COc1ccc(OC)c(NC(=O)Cn2nc3c(cc2=O)CCCC3)c1 | 100 | 87 | 99 | 10
O=C(NCCn1cc(SCC(=O)N2CCOCC2)c2ccccc21)c1cccs1 | 91 | 75 | 104 | -18
CC1C/C(=N/NC(=O)Cc2cn3ccsc3n2)CC(C)(C)C1 (configuration not stated) | 104 | 92 | . | -2
Cc1ccc(NC(=O)CNS(=O)(=O)c2cc(-c3noc(C)n3)sc2C)nc1 | . | . | 107 | -4
CCOC(=O)c1cnc2cc(C(F)(F)F)ccc2c1N1CC(C)CC(C)C1 (configuration not stated) | 119 | 90 | 100 | .
COc1ccc(-c2nn(C)c3sc(C(=O)NCC4(c5ccccc5)CCCC4)cc23)cc1OC | 81 | 86 | 101 | .
COc1cc(/C=C/C(=O)OCC(=O)Nc2c(C)n(C)n(-c3ccccc3)c2=O)ccc1OCC#N | 73 | 87 | . | -45
COc1cc(Cl)c(C)cc1NC(=O)CSc1nc2c(c(=O)[nH]1)CCCC2 | 103 | 83 | 102 | -20
CCCCN(C)C(=O)c1ccc(Cl)c(NC2=NC3CS(=O)(=O)CC3S2)c1 (configuration not stated) | 108 | 94 | 103 | 7

Looked up above:
`CCOC(=O)c1cnc2cc(C(F)(F)F)ccc2c1N1CC(C)CC(C)C1` (configuration not stated) in GIV-Gai inh = 100
`CCCCN(C)C(=O)c1ccc(Cl)c(NC2=NC3CS(=O)(=O)CC3S2)c1` (configuration not stated) in Sa growth inh second temp = 94

Next section.
SMILES | Sa growth inh | Sa growth inh second temp | GIV-Gai inh | HCMV NEC inh
O=C(Cn1c(-c2cccs2)cc2ccccc21)N1CCN(c2ccc(F)cc2)CC1 | 119 | 94 | 105 | .
Cc1cc2c3c([nH]c2cc1S(=O)(=O)NCCN1CCc2ccccc2C1)CC(C)(C)CC3=O | . | . | 102 | -26
CCC(CCC(=O)Nc1nccs1)C(=O)O (configuration not stated) | 89 | 83 | 103 | -22
CC(NC(=O)CN1CCc2sccc2C1c1cccs1)c1ccc2c(c1)OCCO2 (configuration not stated) | 116 | 99 | . | -20
C=CCn1c(O)c(N=N)c2ccccc21 | 113 | 107 | 112 | -54
COc1cccc(-n2c(=O)c3ccccc3n3c(SCCN(C)C)nnc23)c1 | 89 | 97 | . | -17
O=C(NCCn1c(-c2ccc(F)cc2)nc2cccnc21)c1cccnc1 | . | . | 104 | -4
CCOc1ccc(N(CC(=O)Nc2ccc(OC)c(OC)c2)S(=O)(=O)c2ccc(Cl)cc2)cc1 | . | . | 104 | 6
Cc1ccc(N2C(=O)N(c3ccc(Cl)cc3)C3CS(=O)(=O)CC32)cc1 (configuration not stated) | . | . | 101 | -1
COC(=O)c1ccc2c(c1)N(Cc1nc(-c3cccc(C)c3)oc1C)C(=O)C1CCCN21 (configuration not stated) | 82 | 75 | 107 | -6
CC1=CC(C)C2(COC(c3cccnc3)OC2)C(C)C1 (configuration not stated) | 127 | 88 | . | -16
O=C(O)CC1(CC(=O)NCc2ccoc2)CCCCC1 | 98 | 79 | 105 | -1
CN1/C(=C\C(=O)CN2CCN(c3ccc(F)cc3)CC2)C(C)(C)c2ccccc21 | 115 | 92 | . | 6
Cc1ccccc1OC(=O)CSc1nnc(-c2cccs2)o1 | 104 | 86 | 104 | -18
Cc1cccc(-c2nnn3c2nc(N2CCN(C(=O)c4ccco4)CC2)c2cc(Cl)ccc23)c1 | 100 | 90 | 103 | -13
CCCC(=O)NCCc1cc2ccc(OC)cc2[nH]c1=O | 87 | 91 | 100 | .
CCOc1ccc2ccccc2c1/C=C1\C(=O)NC(=S)N(c2cccc(Cl)c2Cl)C1=O | 75 | 47 | . | -16
CCOC(=O)c1nn(-c2ccc(OC)cc2)c(=O)c(C#N)c1C | 91 | 69 | 174 | -83
COc1ccc(C2CC(=O)C3=C(C2)Nc2ccccc2N(C(C)=O)C3c2ccc(C)cc2)cc1OC (configuration not stated) | . | . | 104 | -23
Cn1c(=O)c2c(nc3n(-c4ccc(O)cc4)c(-c4ccc(Cl)cc4)cn23)n(C)c1=O | . | . | 97 | -24
CCN(CC)CCn1c(C)c(C)c2c1ncn1nc(CSc3nc4ccccc4o3)nc21 | . | . | 104 | 4
N#CC1=C(N)N(N2CCOCC2)C2=C(C(=O)CC(c3ccccc3)C2)C1c1ccc(Cl)cc1 (configuration not stated) | 95 | 63 | 105 | -21
O=C(Nc1ccc(S(=O)(=O)Nc2nccs2)cc1)c1cc2ccccc2oc1=O | 87 | 86 | . | -13
CCOC(=O)/C(C#N)=C/Nc1ccc2oc(=O)c(NC(C)=O)cc2c1 | 100 | 95 | 103 | -3
CCCN(CCC)C(=O)CN1C(=O)N(c2ccc(CC)cc2)C2CS(=O)(=O)CC21 (configuration not stated) | . | . | 101 | 14
CC(C)OC(=O)CSc1nnnn1C | 106 | 103 | 100 | -1
O=C(O)c1n[nH]c(=S)n1C1CC1 | 103 | 94 | . | -6
CCN(CC)Cc1ccc(C(=O)NN)o1 | 95 | 86 | . | -16
C(=N\n1cnnc1)/c1ccccn1 | 96 | 94 | 105 | .
Cn1c(O)c(C2=NNC(c3ccc4c(c3)OCO4)C2)c(=O)[nH]c1=O (configuration not stated) | . | . | 98 | 3
Cc1ccc(SCC(=O)N2CCc3ccccc32)cc1 | 105 | 93 | 104 | .
Cc1nnc(N2C(=O)C(=O)/C(=C(/O)c3ccc(OC(C)C)cc3)C2c2ccco2)s1 (configuration not stated) | 114 | 84 | 105 | -54
OC1(c2ccccn2)COc2ccccc2O1 (configuration not stated) | 87&91 | 92&80 | 102 | 6&-8
CCOC(=O)c1sc(NC(=O)Cn2nc([N+](=O)[O-])c([N+](=O)[O-])c2C)c(C(=O)OCC)c1C | . | . | 106 | 0
CC1CCc2c(sc(NC(=O)Cn3nnc(-c4ccc(C(F)(F)F)cc4)n3)c2C#N)C1 (configuration not stated) | 104 | 92 | 99 | 0
CCn1c2ccccc2c2cc(NC(=O)COc3cc(C)ccc3C)ccc21 | 107 | 94 | 103 | 10
Cc1ccc2oc(-c3nnc(C(=O)NCc4ccc5c(c4)OCO5)o3)c(C)c2c1 | . | . | 100 | -18
COc1ccc(CCNc2nc(SCC(=O)c3ccc(F)cc3)nc3ccccc23)cc1OC | 109 | 81 | 104 | .
CNC(=O)c1ccc(OC)c(S(=O)(=O)NC)c1 | 98 | 101 | 104 | -20
Cn1c(SCC(=O)c2ccc(Cl)cc2)nnc1-c1ncc(C(F)(F)F)cc1Cl | 105 | 95 | 100 | -16
O=C(NCCN1CCc2ccccc2C1)Nc1ccccc1F | . | . | 106 | -14
CCn1c(SCc2nnc(-c3ccccc3)o2)nc2sc(C)c(C)c2c1=O | 90 | 94 | . | -2
CCC(CC)NC(=O)Nc1ccccc1C | 103 | 101 | 102 | -7
Cc1ccc(C(=O)Nc2ccc3c(c2)CCC(=O)N3C)cc1 | . | . | 108 | -26
CCc1nn2c(C)cc(=O)[nH]c2c1C | 103 | 86 | . | -4
Cc1ccc(-n2nc3c(=O)n(CC(=O)NCc4ccco4)nc(C)c3c2C)cc1 | 98 | 90 | 103 | .
Cc1cc2c(n1-c1ccc(C(=O)O)cc1)CCCC2 | 64 | 61 | 79* | 66*
O=C1CC(c2ccccc2OCc2ccccc2)c2cc3c(cc2N1)OCCO3 (configuration not stated) | 109 | 84 | 101 | -4

Filtered by structure, the compounds so far with a Cl atom (14)
SMILES | Sa growth inh | Sa growth inh second temp | GIV-Gai inh | HCMV NEC inh
CN(CCNC(=O)CC1CCN(S(=O)(=O)c2ccc(Cl)cc2)CC1)C1CCCCC1 | . | . | 99 | -37
Cc1ccccc1N1C(=O)C(Oc2ccc(Cl)cc2)C1CNC(C)(C)C (configuration not stated) | 125 | 91 | 102&108 | -1
O=C(NC1C2CC3CC(C2)CC1C3)c1cc(F)c(F)cc1Cl (configuration not stated) | 81 | 87 | . | -12
COc1ccc(NC(=O)CSc2n[nH]c(-c3ccccc3)n2)cc1Cl | 78 | 34 | 103 | .
CCCN(CCC)c1cc(Cl)nc(SC)n1 | . | . | 101 | -17
COc1cc(Cl)c(C)cc1NC(=O)CSc1nc2c(c(=O)[nH]1)CCCC2 | 103 | 83 | 102 | -20
CCCCN(C)C(=O)c1ccc(Cl)c(NC2=NC3CS(=O)(=O)CC3S2)c1 (configuration not stated) | 108 | 94 | 103 | 7
CCOc1ccc(N(CC(=O)Nc2ccc(OC)c(OC)c2)S(=O)(=O)c2ccc(Cl)cc2)cc1 | . | . | 104 | 6
Cc1ccc(N2C(=O)N(c3ccc(Cl)cc3)C3CS(=O)(=O)CC32)cc1 (configuration not stated) | . | . | 101 | -1
Cc1cccc(-c2nnn3c2nc(N2CCN(C(=O)c4ccco4)CC2)c2cc(Cl)ccc23)c1 | 100 | 90 | 103 | -13
CCOc1ccc2ccccc2c1/C=C1\C(=O)NC(=S)N(c2cccc(Cl)c2Cl)C1=O | 75 | 47 | . | -16
Cn1c(=O)c2c(nc3n(-c4ccc(O)cc4)c(-c4ccc(Cl)cc4)cn23)n(C)c1=O | . | . | 97 | -24
N#CC1=C(N)N(N2CCOCC2)C2=C(C(=O)CC(c3ccccc3)C2)C1c1ccc(Cl)cc1 (configuration not stated) | 95 | 63 | 105 | -21
Cn1c(SCC(=O)c2ccc(Cl)cc2)nnc1-c1ncc(C(F)(F)F)cc1Cl | 105 | 95 | 100 | -16

Source: PubChem BioAssay
